Assay outcomes: PubChem, several laboratories
Env fusion inh: blocks HIV Env-driven cell-cell fusion | 360,000 compounds, 1.1% hits | HeLa-JRFL Env/CEM21 cell fusion, luciferase | AID 651610 | inhibition, % at 12.3 µM;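 active means mean replicate inhibition score of at least 50 and every replicate individually at or above 50; inconclusive means only one of the two criteria met; inactive means mean below 50 and not all replicates reaching 50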;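 further: 0% = plate neutral controls and 100% = maraviroc near 300 nM; one replicate is shown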
CSC inhib: blocks cancer stem cells. cancer stem cell-like cells viability, luminescence. inhibition, % at 7.5 µM. 300,000 compounds, 1.1% hits;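 active means mean at 75% or more and at least half the replicates too; inconclusive means mean and replicates disagree; tested in HMLE shEcad cells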;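 further: 0% = median of negative and 100% = median of positive control wells; the first replicate is given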
Rce1 inh: inhibitors of yeast Ras-converting enzyme. yeast membranes, quenched prenylated peptide cleavage fluorescence. calls only. 290,000 compounds, 0.27% hits;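 active means fall in fluorescence gain of 50% or more versus controls, with final raw signal at or below 3038400; inconclusive means same 50% fall but final raw signal above 3038400; inactive means fall in fluorescence gain under 50%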;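 further: plate controls were neutral control wells for no effect and wells lacking membranes for full effect; tested at 10 µM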
eIF4H inh: inhibitors of RNA binding by human eIF4H. Q15056. eIF4H fluorescence polarization binding assay. inhibition, % at 35 µM. 290,000 compounds, 0.94% hits. AID 2012;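 active means 50% or more with normal probe brightness, or confirmed in later tests; inconclusive means above 50% with abnormal brightness, or retests that disagree; inactive means below 50% or failed in later tests; about a fifth of its hits are not listed in these tables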;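 further: calls also rest on retests at 20 µM and on dose response follow-up; 0% = protein and probe with vehicle and 100% = probe without protein; strong numbers were not always called active; many hits fall short of the cut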
UUG fidelity: alters start codon recognition fidelity in yeast; 350,000 compounds, 0.13% hits; S. cerevisiae UUG-firefly luciferase reporter, luminescence/redox ratio; AID 602363; activity score, % at 18.7 µM;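 active means replicate mean at a twofold rise or more, about +100% in these data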;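 further: firefly luciferase made from a UUG start codon reports start codon fidelity; reporter light over untreated wells divided by growth signal over untreated wells; some hits fall short of that in this replicate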
MT1-MMP act inh: inhibitors of human MT1-MMP activation | P50281 | HT1080 RFP-PRO-GFP cells, GFP/RFP ratio fluorescence, overnight; percent of plate control window, DMSO zero | GFP/RFP ratio change, % at 20 µM | 360,000 compounds, 0.061% hits | AID 651647;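 active means GFP/RFP ratio change of at least 30% with cell ATP level not reduced by more than half and red fluorescence within 50% of control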; further: strong numbers were not always called active
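Assay system: RFP-PRO-GFP reporter HT1080 cells; read-out basis: GFP/RFP fluorescence ratio; benchmarks: DMSO wells and RFP-L50D-GFP cells; doses: 20 µM single dose, 1% DMSO; schedule: overnight cell settling, then overnight compound exposure, 37 °C, 5% CO2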
PABP FP inh: blocks human PABP binding to poly(A) RNA; fluorescence polarization; inhibition, % at 35 µM; 290,000 compounds, 1% hits; AID 2014;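 active means 50% or more with normal probe brightness, or confirmed in later tests; inconclusive means above 50% with abnormal brightness, or retests that disagree; inactive means below 50% or failed in later tests; about a fifth of its hits are not listed in these tables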;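 further: calls also rest on retests at 20 µM and on dose response follow-up; controls were probe without protein and protein plus probe with vehicle; some compounds called inactive have numbers as strong as hits; many hits fall short of the cut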
Target sequence (P11940 whole entry, looked up): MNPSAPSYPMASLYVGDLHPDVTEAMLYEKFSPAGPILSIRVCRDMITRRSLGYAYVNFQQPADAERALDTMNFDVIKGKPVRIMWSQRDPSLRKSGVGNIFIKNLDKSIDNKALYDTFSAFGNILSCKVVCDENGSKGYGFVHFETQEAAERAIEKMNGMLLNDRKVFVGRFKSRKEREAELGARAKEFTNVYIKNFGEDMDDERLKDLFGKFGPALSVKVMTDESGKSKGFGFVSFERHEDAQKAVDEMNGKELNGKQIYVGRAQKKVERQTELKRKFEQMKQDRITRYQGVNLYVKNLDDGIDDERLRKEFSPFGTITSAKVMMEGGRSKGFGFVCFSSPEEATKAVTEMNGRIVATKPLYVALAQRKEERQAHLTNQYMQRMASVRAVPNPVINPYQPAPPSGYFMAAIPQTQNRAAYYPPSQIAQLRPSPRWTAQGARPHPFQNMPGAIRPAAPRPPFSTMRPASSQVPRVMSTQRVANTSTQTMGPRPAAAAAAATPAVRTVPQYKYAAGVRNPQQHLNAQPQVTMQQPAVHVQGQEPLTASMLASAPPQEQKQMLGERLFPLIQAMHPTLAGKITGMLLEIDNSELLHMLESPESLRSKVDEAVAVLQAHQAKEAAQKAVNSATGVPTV
MT1-MMP act inh RFP: also measured in MT1-MMP act inh; calls as there; RFP signal change, %; measured here: RFP expression control read;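 0 = vehicle wells; hits needed this value within 50% of zero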
* marks the source's active call; other numbers are inactive results; i = inactive; ? = inconclusive; · = not tested or not shown; & = joins results of further samples. Not all compounds are listed; rates above refer to the full screens.

Values run as follows: Env fusion inh	CSC inhib	Rce1 inh	eIF4H inh	UUG fidelity	MT1-MMP act inh	MT1-MMP act inh RFP	PABP FP inh
O=C(O)c1ccc(NS(=O)(=O)c2ccc3c(c2)OCCCO3)cc1
  -6.0	-1.8	i	9.9	-3.5	2.1	3.1	-15.2
CCC1CN(C(=O)N2CCC(C(=O)NCc3ccc(F)cc3)CC2)c2ccccc2O1 (stereo not drawn)
  3.1	-5.7	i	-3.6	17.7	3.5	-5.3	5.2
COc1ccc(Cc2nnc(Nc3ccccc3OC)[nH]c2=O)cc1
  -30.9	-1.1	i	2.9	·	1.4	4.8	-4.5
CCc1nnc(NC(=O)CSc2nnc(-c3ccoc3C)n2-c2ccc(C)cc2)s1
  10.2	-7.1	i	1.0	-6.9	-4.2	1.5	5.7
COc1cc(NC(=O)c2ccc(N3CC4CC(C3)c3cccc(=O)n3C4)c(NC(=O)c3ccncc3)c2)cc(OC)c1OC (stereo not drawn)
  -5.3	-6.9	i	-7.6	10.1	-0.1	3.0	-5.6
COc1cc(/C=N/NC(=O)CCn2nc(C)cc2C)ccc1O
  9.9	-15.4	i	-7.9	-5.1	2.5	2.7	2.3
CCc1ccc(C(=O)NCc2cccs2)s1
  -24.5	14.0	i	-2.6	13.3	3.8	6.4	-2.2
COc1ccccc1NC(=O)COC(=O)C1CC(=O)N(c2ccc3c(c2)OCCO3)C1 (stereo not drawn)
  6.7	-4.0	·	·	-7.2	-1.3	1.4	·
N#Cc1c(N)nc2c3c(sc(=N)c2c1N)NC(=O)CC3c1ccccc1 (stereo not drawn)
  11.4	-3.1	i	34.0	-12.5	-11.6	9.1	-2.6
CCNC(=O)NCCc1c[nH]c2ccc(Cl)cc12
  -27.0	-3.2	i	2.2	-22.7	7.5	1.8	2.8
Cn1c(=O)[nH]c(=O)c2c1nc(NC1CCCCC1)n2CCO
  7.1	-5.8	i	-10.7	-8.2	4.9	7.2	16.9
CCOC(=O)C(NC(=O)Nc1ccc(F)cc1F)(Oc1ccccc1)C(F)(F)F (stereo not drawn)
  ·	-31.6	i	1.9	·	-1.5	-7.9	5.3
CCN(CC)C(=O)Cn1cc(C(=O)C(=O)NCc2cccnc2)c2ccccc21
  1.9	4.3	i	-10.0	-18.2	-0.7	2.3	-1.5
COc1cccc(OCc2nnc3n2N=C(c2ccccc2)C(CC(=O)O)S3)c1 (stereo not drawn)
  -16.5	-4.6	i	-7.0	-5.4	3.8	9.1	1.3
CC1CCN(CC(=O)N2CCN(c3ccccc3)CC2)CC1
  -6.9	5.9	i	-10.0	-15.5	0.9	3.2	-15.6
CCOc1cccc(-c2cc(N3CCN(CCO)CC3)n3nccc3n2)c1
  15.5	·	·	·	-14.2	-5.9	6.9	·
CCN1CCCC1CNC(=O)C(=O)NC1CC1 (stereo not drawn)
  -9.7	0.5	i	-10.5	·	-0.2	2.8	-10.2
CN(Cc1ccccc1)c1nc2c(c(=O)[nH]c(=O)n2C)n1CCCSc1ncccn1
  -55.0	-10.0	i	-9.4	-8.9	2.7	2.5	-6.4
COc1cc(NC(=O)C2CCN(S(=O)(=O)c3ccc4c(c3)CC(C)N4C(C)=O)CC2)cc(OC)c1OC (stereo not drawn)
  -10.7	-14.7	i	·	0.1	-0.6	1.5	·
COc1ccc([C@@H]2CC=C(C(=O)O)[C@H](c3ccccc3)N2S(=O)(=O)c2ccccc2C)cc1
  -14.5	3.8	·	·	-3.5	-5.2	4.1	·
CSCC[C@H](NC(=O)OC(C)(C)C)c1nnc(SCc2ccccc2)o1
  ·	2.9	i	-4.8	-19.0	2.8	-5.6	-8.9
CC(C)C(=O)N1CCC1(C)C(=O)NCc1ccc(C(C)(C)C)cc1 (stereo not drawn)
  3.2	·	·	·	0.4	-0.7	-0.6	·
CC(C)c1nc(SCC(=O)N2CC(=O)Nc3ccccc32)c2ccccc2n1
  16.7	2.4	i	-5.2	-4.3	-1.7	-14.3	-0.5
COc1ccc([N+](=O)[O-])cc1N(CC(O)CN1CCCCC1)S(=O)(=O)c1ccc(C)cc1 (stereo not drawn)
  -19.7	4.1	i	112.3*	4.0	3.5	-0.1	99.1*
CCOC(=O)C1CCN(C(=O)c2cc3c(=O)n4ccccc4nc3n2C)CC1
  12.4	-2.9	?	1.7	·	-0.3	-0.6	5.5
COc1ccc(C(=O)Nc2cc3c4c(c2)C(C)C(=O)N4CCC3)cc1OC (stereo not drawn)
  -5.1	-5.2	i	·	4.3	3.6	0.6	·
CSc1ccc(CN2C(=O)NC3(CCCCC3)C2=O)cc1
  7.5	-5.7	i	-5.5	-13.1	7.1	0.6	-10.0
CS(=O)(=O)N(CC(=O)N1CCN(Cc2ccccc2)CC1)c1ccccc1F
  11.1	-8.8	·	7.5	-12.3	-1.2	-0.9	-7.9
CN(Cc1ccccc1)S(=O)(=O)c1ccc2[nH]c(=O)oc2c1
  -1.9	-5.8	i	-5.9	0.4	3.8	2.6	-20.6
C=CCN(C(=O)c1ccccc1)C1CCS(=O)(=O)C1 (stereo not drawn)
  -1.8	-3.5	i	-6.5	-11.5	-1.6	-0.8	-1.4
Cc1ccnc2nc(C(=O)OCC(=O)c3ccc(Cl)cc3)nn12
  -10.1	-10.7	·	·	-3.8	-6.3	2.9	·
N#Cc1ccccc1NC(=O)Nc1ccc(Cl)cc1
  ·	11.0	i	-8.4	-26.0	3.4	-0.5	2.0
Cc1ncc([N+](=O)[O-])n1CCOC(=O)NC(NCc1ccccc1Cl)C(Cl)(Cl)Cl (stereo not drawn)
  4.2	3.1	i	-2.7	-6.2	1.1	-3.2	-6.2
O=C(c1cccs1)c1coc2ccc(O)c(CN3CCOCC3)c12
  -37.5	-9.7	i	0.7	-8.9	-9.5	-5.1	0.5
COc1cccc(OCC(O)CN2CCN(C(c3ccccc3)c3ccccc3)CC2)c1 (stereo not drawn)
  0.8	·	i	·	-6.6	-9.9	-4.9	·
O=C(Nc1cccnc1)c1ccc2c(c1)C(=O)N(CC1CCCO1)C2=O (stereo not drawn)
  -2.2	7.9	i	-4.2	·	7.0	10.5	-6.9
Cc1ccc(S(=O)(=O)CCc2nnc(NC(=O)COc3cccc(C)c3)s2)cc1
  ·	11.2	i	-6.3	-18.2	-1.4	-0.8	4.9
COc1ccc(-c2nc(CC(=O)O)cs2)cc1
  ·	-7.4	i	0.2	-10.1	1.3	3.5	4.3
Cc1ccc(SCC(=O)Nc2ccccc2N2CCOCC2)cc1
  15.2	14.8	i	9.1	2.0	-0.5	-2.0	14.0
Cc1cccc(C(=O)N[C@H](C(=O)OCC(=O)NC2CCS(=O)(=O)C2)C(C)C)c1 (stereo partly drawn)
  ·	-17.1	i	0.6	·	3.2	7.0	-2.8
CCN(CC)Cc1c(NC(=O)c2ccccc2)sc(C)c1C
  -8.2	-7.3	i	11.7	·	-2.8	2.1	2.6
COc1ccc(C2NC(=S)NC(C)=C2C(=O)c2ccccc2)cc1OC (stereo not drawn)
  4.1	-11.9	i	-2.6	·	-1.6	2.3	12.5
COCCn1nc2cc(C(=O)NCC34CC5CC(CC(C5)C3)C4)ccc2c1OC
  26.5	7.8	i	4.8	1.2	3.9	-0.7	3.0
Cc1cc(C)c(OCC(=O)OCCNC(=O)c2cccnc2)c(C)c1
  -2.5	-1.2	i	-3.6	-6.4	1.5	3.0	6.6
Cc1ccc(S(=O)(=O)NC(=O)CSc2nc3ccccc3s2)cc1
  -33.6	1.2	i	1.6	4.2	0.3	5.1	0.2
CC(=O)c1cnc2c(-c3ccccc3)c(C)nn2c1C
  -142.5	8.5	i	5.9	-5.3	1.8	4.3	-3.9
O=C(O)/C=C/C(=O)c1ccc2c(c1)CCc1ccccc1-2
  -163.2	55.3	i	·	-35.9	-1.4	-6.0	·
O=C(c1cccc(S(=O)(=O)N2CCc3ccccc3C2)c1)N1CCN(c2ccccc2)CC1
  9.3	-23.7	i	-5.4	-5.4	0.7	-3.0	3.4
COc1ccc(C2=CSC3=NCCN23)cc1[N+](=O)[O-]
  5.6	-16.8	i	-5.6	-10.1	-2.1	4.1	-2.2
O=C(/C=C/c1ccc(Cl)cc1)N1CCN(c2ccccn2)CC1
  ·	13.0	i	2.9	·	-0.4	1.9	3.4
CCOc1ccc(NC(=O)CSc2nc(-c3cccs3)cc(C(F)(F)F)n2)c([N+](=O)[O-])c1
  -6.8	0.9	i	6.2	·	4.4	4.1	0.0
CC(C)(C)NCC(O)COc1c(F)cc(Br)cc1F (stereo not drawn)
  -12.6	·	i	-8.0	-14.3	-7.3	-3.8	-0.8
Cn1cnnc1SCC(=O)c1cccc([N+](=O)[O-])c1
  -25.1	12.4	i	1.5	-10.3	0.9	2.1	2.4
CN=c1scc(-c2ccc(F)cc2)n1/N=C/c1ccc(O)c(O)c1
  -49.4	·	·	3.6	·	-28.8	-26.7	4.8
CC(=C1C(=O)c2ccccc2C1=O)N1CCc2ccccc2C1
  ·	2.2	i	1.8	-8.5	-1.0	6.0	9.3
Nc1cccc(OCCCCCOc2cccc(N)c2)c1
  -3.6	·	·	·	-10.0	7.5	2.6	·
O=C(CN1CCC(NC(=O)Nc2ccc(F)cc2)CC1)Nc1ccccc1[N+](=O)[O-]
  3.3	1.5	i	0.6	-4.2	-1.9	-2.5	0.8
Cc1nc(SCc2ccc([N+](=O)[O-])cc2)n[nH]1
  -14.3	-3.5	i	-7.1	-15.1	0.0	5.4	2.2
COC(=O)c1cc(OC)c(OC)cc1NC(=O)CSc1ccc(C)cc1
  -41.5	6.7	i	-5.9	-5.3	-3.4	-1.3	5.4
COc1ccc(S(=O)(=O)CC(=O)Nc2ccccc2Cl)cc1
  0.4	-0.4	i	-4.2	-12.5	-0.4	-0.2	-7.8

Next part
Values run as follows: Env fusion inh	CSC inhib	Rce1 inh	eIF4H inh	UUG fidelity	MT1-MMP act inh	MT1-MMP act inh RFP	PABP FP inh
CSc1nnc2sc3cc(C)ccc3n12
  -10.1	·	·	·	-15.9	0.3	-0.2	·
CCN(CC)S(=O)(=O)c1ccc(N2CCOCC2)c(NC(=O)c2cc([N+](=O)[O-])ccc2Cl)c1
  3.0	1.5	i	5.2	·	1.9	5.9	13.8
C[C@@H]1CN([C@H](C)CO)C(=O)CCCn2cc(nn2)CO[C@H]1CN(C)C(=O)c1ccccc1
  -6.1	·	·	·	8.4&-23.2	1.0	6.5	·
COc1ccc(C2CC(=O)N3C(=C2C#N)SCC3(O)c2ccccc2)cc1 (stereo not drawn)
  ·	·	i	-8.0	-9.2	4.4	2.6	-6.9
CS(=O)(=O)c1nc(-c2ccccc2)cc(C(F)(F)F)n1
  i	107.2*	i	3.5	-29.1	-9.1	-16.8	12.6
